From PubChem
PV pol inh – poliovirus RNA polymerase inhibition; AID 588519; % elongation, % (compound at 16.7 µg/mL); P03300; hit rate 0.66% among 150,000; poliovirus polymerase elongation, fluorescence polarization; hits give low values; in the data active = % elongation below about 90%; also: some results filed as inactive read as strong as hits
Target sequence (P03300 1749-2209 limits assumed): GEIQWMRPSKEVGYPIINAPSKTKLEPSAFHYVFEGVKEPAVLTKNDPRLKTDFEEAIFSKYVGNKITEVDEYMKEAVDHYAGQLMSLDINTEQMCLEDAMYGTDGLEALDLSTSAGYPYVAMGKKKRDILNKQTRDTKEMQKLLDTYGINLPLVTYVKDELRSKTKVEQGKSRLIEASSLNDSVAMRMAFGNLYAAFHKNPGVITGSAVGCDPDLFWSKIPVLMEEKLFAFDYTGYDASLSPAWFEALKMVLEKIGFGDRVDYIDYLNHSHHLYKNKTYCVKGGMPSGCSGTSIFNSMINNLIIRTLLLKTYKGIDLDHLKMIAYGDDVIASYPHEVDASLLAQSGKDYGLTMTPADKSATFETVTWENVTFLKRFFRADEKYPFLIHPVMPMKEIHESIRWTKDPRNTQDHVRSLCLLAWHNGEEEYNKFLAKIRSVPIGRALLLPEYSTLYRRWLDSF
MenB inh – blocks the Mycobacterium tuberculosis MenB enzyme | MenB enzyme assay, absorbance read-out; some hits fall short of the stated cut | inhibition, %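 (about 12 µg/mL by stock and volumes)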 | AID 540299 | hit rate 0.43% among 100,000;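 active = mean of two replicates above 30%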;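 also: 0% = no compound and 100% = wells with inactive enzyme; the first replicate is given; strong numbers were not always called active; inactives centre near -10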
Target sequence (P9WNP5 whole entry, looked up): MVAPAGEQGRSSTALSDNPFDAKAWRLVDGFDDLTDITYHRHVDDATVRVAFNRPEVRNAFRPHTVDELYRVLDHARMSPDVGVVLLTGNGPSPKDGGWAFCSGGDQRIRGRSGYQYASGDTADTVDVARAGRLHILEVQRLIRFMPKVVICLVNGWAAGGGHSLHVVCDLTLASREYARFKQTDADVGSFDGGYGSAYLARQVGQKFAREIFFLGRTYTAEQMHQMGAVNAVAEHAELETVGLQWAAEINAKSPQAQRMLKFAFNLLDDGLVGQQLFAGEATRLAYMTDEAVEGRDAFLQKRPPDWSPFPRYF
Mtb MbtI inh – inhibitors of Mycobacterium tuberculosis siderophore enzyme MbtI; purified MbtI enzyme, fluorescence intensity read-out; inhibition, %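 (about 17 µg/mL by stock and volumes)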; hit rate 0.89% among 100,000; AID 493033;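 active = above 50% in both replicates, above 80% if mildly self-fluorescent; inactive = the rest, strongly fluorescent compounds included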;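 also: 0% = mean of negative and 100% = mean of positive controls; one replicate is shown; some compounds called inactive have numbers as strong as hits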
PV pol inh intensity – further read-out of PV pol inh, marked with its call; % elongation; measured here: total intensity read-out; formula for this scale not given here;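 total fluorescence in place of polarization; lower means less elongation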
Active calls of the source: *; i = inactive; . = not tested or not shown; & = joins results of further samples.

SMILES | PV pol inh | PV pol inh intensity | MenB inh | Mtb MbtI inh
Cc1ccc(NC(=O)CN2C(=O)c3ccccc3S/C2=C\C#N)cc1C | 121 | 120 | -11 | 7
Cn1c(=O)c(=O)n(C)c2c3nsnc3ccc21 | 100 | 98 | -1 | 17
COc1ccc(C(=O)Cn2c(=O)c(CCC(=O)O)nn3c4ccccc4nc23)cc1OC | 101 | 108 | -8 | 190
CC1CCCCN1C(=O)Cn1cc(C#N)c2ccccc21 (stereo not drawn) | 98 | 101 | -2 | 3
Cc1nc2c(C(=O)NC(C)C)cnn2c(C)c1Cc1c(F)cccc1Cl | 101 | 99 | -11 | 92
CCCNC(=O)CCC1CCCCC1 | 103 | 92 | -17 | -7
COc1cccc(N2CCN(C(=O)c3ccc(/C=C4\Oc5ccccc5N(C)C4=O)cc3)CC2)c1 | 102 | 97 | -6 | 50
COc1ccc(CCCc2nnc(SCC(=O)Nc3ccccc3)o2)cc1C | 101 | 101 | 0 | 0
COc1ccc(NC(=O)c2cncc(NS(=O)(=O)c3ccc(F)cc3)c2)cc1 | 105 | 101 | -22 | -7
Cc1ccc2nc(Cn3c(=O)c(N4CCOCC4)nc4ccccc43)cc(=O)n2c1 | 102 | 109 | -16 | 9
CCCn1c(=S)[nH]c2cc(C(=O)NCc3ccccc3)ccc2c1=O | 100 | 97 | -23 | -7
O=C(CCN1CCCCC1)c1ccccc1 | 100 | 100 | 31 | 22
CN(C)/C=N/NC(=O)c1nc(-c2cccc(-n3cccc3)c2)no1 | 102 | 103 | -31 | 6
CC1CN(Cn2[nH]c(=O)ccc2=O)CC(C)O1 (stereo not drawn) | 102 | 104 | -14 | 4
COc1cccc(N2CCN(CC(=O)NCC(F)(F)F)CC2)c1 | 103 | 100 | -15 | -13

Molecules listed so far that have an aryl methoxy group (5):
SMILES | PV pol inh | PV pol inh intensity | MenB inh | Mtb MbtI inh
COc1ccc(C(=O)Cn2c(=O)c(CCC(=O)O)nn3c4ccccc4nc23)cc1OC | 101 | 108 | -8 | 190
COc1cccc(N2CCN(C(=O)c3ccc(/C=C4\Oc5ccccc5N(C)C4=O)cc3)CC2)c1 | 102 | 97 | -6 | 50
COc1ccc(CCCc2nnc(SCC(=O)Nc3ccccc3)o2)cc1C | 101 | 101 | 0 | 0
COc1ccc(NC(=O)c2cncc(NS(=O)(=O)c3ccc(F)cc3)c2)cc1 | 105 | 101 | -22 | -7
COc1cccc(N2CCN(CC(=O)NCC(F)(F)F)CC2)c1 | 103 | 100 | -15 | -13

Continued.
SMILES | PV pol inh | PV pol inh intensity | MenB inh | Mtb MbtI inh
Cc1ccccc1C1NC(=S)NC2=C1C(=O)CC(C)(C)C2 (stereo not drawn) | 101 | 101 | -34 | 7
Cc1cc(F)ccc1S(=O)(=O)N(CC(=O)N1CCOCC1)CC(=O)N1CCOCC1 | 103 | 104 | -17 | -56
CC(C)CNC(=O)c1cccc(NC(=O)C(C)C)c1 | 104 | 104 | -18 | -2
COC(=O)c1ccc2c(=O)n3nc(NCCc4ccccc4)sc3nc2c1 | 100 | 96 | 9 | 52
CC(=O)Nc1ccc(NC(=O)C(C)OC(=O)c2cc(-c3ccco3)nc3ccccc23)cc1 (stereo not drawn) | 108 | 117 | -3 | -171
Cc1cc(N=Cc2c(O)ccc3ccccc23)no1 | 96 | 95 | -60 | 30
COc1ccc(CN2C(=O)c3ccccc3CC2(C)C(=O)NC2CCCCC2)cc1 (stereo not drawn) | 104 | 99 | -4 | -2
Cc1nn(-c2ccccc2)nc1C(=O)Oc1c(Cl)cccc1Cl | 101 | 104 | 4 | 12
C/C(=N/NC(N)=S)C1C(=O)c2ccccc2C1=O | 101 | 99 | -206 | 23
Cc1ccc(-c2csc(=S)n2CC(=O)O)cc1 | 103 | 97 | . | 9
C=CCNCCOc1cccc(CC)c1 | 99 | 101 | -12 | -17
Cc1cc2nc(SCCOC(=O)Nc3ccc(Cl)cc3)nc(C)c2cc1C | 106 | 105 | -8 | .
COc1ccccc1NCn1c(=O)sc2ccccc21 | 100 | 94 | -4 | .
CCS(=O)(=O)c1ccc(O)c(N=Cc2c(O)[nH]c(=S)[nH]c2=O)c1 | 115 | 113 | -103 | -10
CCOC(=O)Cn1cc(S(=O)(=O)N2CCC(C)CC2)c(S(=O)(=O)N2CCC(C)CC2)c1 | 102 | 103 | -4 | -17
CCN(Cc1cc(Cl)cc(Cl)c1)C(=O)c1cnc(OC)cc1C(F)(F)F | 107 | 107 | -18 | -10
Cc1nc(OCC2CN(Cc3ccccc3)CCO2)c2ccccc2n1 (stereo not drawn) | 108 | 105 | 20 | 9
CN(CC1COc2ccccc2O1)C(=O)c1ccc(Cl)cc1Cl (stereo not drawn) | 101 | 95 | -32 | 15
Clc1nc2ncccc2nc1-c1ccccc1 | 103 | 103 | 6 | -3
CCc1ccc(NC(=O)CCn2c(=O)c3cccn3c3cccnc32)cc1 | 100 | 104 | 14 | 9
NC(=S)n1[nH]c(-c2ccccc2)c(N=Nc2ccccc2O)c1=O | 101 | 103 | -56 | -15
O=C(N/N=C/c1cc2c(cc1Br)OCO2)c1ccc(CN2CCOCC2)cc1 | 103 | 104 | -21 | -8
O=c1c2ccccc2c(C=NCc2cccnc2)c(O)n1-c1ccccc1C(F)(F)F | 101 | 106 | . | -11
CCCN1CCC(NC(=O)c2cccc(Oc3ccccc3)c2)CC1 | 102 | 105 | -9 | -4
CN(C)S(=O)(=O)c1ccc2nnn(OCc3ccccc3)c2c1 | 106 | 106 | -5 | -6
O=C1C=CC(=O)N1c1ccc(N2CCCCC2)cc1 | 103 | 100 | -40 | 100*
Cn1c(SCC(=O)c2ccc(O)cc2O)nnc1C(F)(F)F | . | . | -22 | 8
Cc1ccc(NC(=O)CCNS(=O)(=O)c2ccc3c(c2)CCC(=O)N3)cc1 | 102 | 105 | -11 | -10
N=C(N)SCc1cn(-c2ccccc2)nc1-c1ccc(Br)cc1 | 102 | 98 | . | -8
OCCNC(=S)NC12CC3CC(CC(C3)C1)C2 | 106 | 107 | -19 | -2
CCOC(=O)N1CCC2(CC1)C(C(=O)c1ccccc1)C2(C#N)C#N (stereo not drawn) | 102 | 105 | -12 | 3
COc1cc(C(O)c2cc(C(F)(F)F)cc(C(F)(F)F)c2)cc(OC)c1OC (stereo not drawn) | 104 | 107 | -30 | -9
COc1cccc(CNCC2CCCO2)c1OCC(=O)NC(C)(C)C (stereo not drawn) | 99 | 100 | -70 | -12
CCn1cc(C(=O)NCCC(C)C)c(=O)c2cc(S(=O)(=O)N(C)C)ccc21 | 100 | 103 | 6 | -4
COc1ccccc1NC(=O)COc1ccc(/C=N/n2cnnc2)cc1OC | 101 | 103 | 2 | -13
CC1CC(=O)Nc2ccccc2N1C(=O)CSc1ccc2c(c1)OCCCO2 (stereo not drawn) | 106 | 111 | -10 | -4
CCN(Cc1nc2cc(OC)c(OC)cc2c(=O)[nH]1)C(=O)NC(C)(C)C | 99 | 105 | 13 | 3
COC(=O)Nc1nc2ccc(C(=O)c3cccs3)cc2[nH]1 | 97&98&99&100 | 101&99&101&103 | 0&5&-7 | 13&-4&-12
Fc1ccc(-c2ccc(/C=N/n3cnnc3)[nH]2)cc1 | 103 | 100 | . | 10
CCOc1cc2oc(=O)cc(C)c2cc1OCC | 104 | 109 | . | 80
CCn1c(SCc2ccccc2)nnc1C1CCCCC1 | 103 | 103 | -28 | -18
Cc1cc2[nH]c(=O)c(=O)[nH]c2cc1S(=O)(=O)N(C)C1CCCCC1 | 100 | 100 | -3 | -225
Cc1nc(NC2CCN(CC(=O)Nc3ccc4c(c3)OCCO4)CC2)[nH]c(=O)c1C | 103 | 104 | -8 | 4
CCCOc1ccc(NC(=O)C2CC(=O)N(C(C)C)C2)cc1 (stereo not drawn) | 106 | 110 | -16 | .
N#Cc1cc(C#N)c(SCc2cc3c(cc2Br)OCCO3)nc1N | 117 | 122 | -30 | 127
CN(C)C(C(=O)O)c1ccc(Cl)cc1 (stereo not drawn) | 102 | 104 | -6 | 4
N#CCCn1c(SCC(=O)c2ccc(Cl)s2)nc2ccccc21 | 106 | 100 | -35 | 20
CCOc1ccc(NC(=O)Cc2c(C(=O)O)[nH]c3ccccc23)cc1 | 98 | 102 | -68 | 6
COc1ccc2c(c1)sc(=NC(=O)CSCC(=O)Nc1nc(-c3ccccc3)cs1)n2C | 100 | 105 | -1 | 13
O=C1NC(=S)SC1CNc1ccccc1 (stereo not drawn) | 108 | 109 | . | 11
CC(=NC1CC1)C1=C(O)c2ccccc2C1=O | 103 | 104 | -27 | 19
O=C(CNc1ccccc1Cl)N/N=C1\CCCc2ccccc21 | 102 | 102 | 39* | 7
CCc1cc2cc3c(cc2nc1SCCN1CCOCC1)OCO3 | 102 | 104 | -35 | -118
CC(C)C(=O)N1CCN(c2ccccc2)CC1 | 100 | 102 | -6 | -11
Cc1cnc(C(=O)OCCCCN2C(=O)c3ccccc3C2=O)cn1 | 104 | 104 | -7 | -2
O=C1NC(=O)C2(COC(c3ccccc3)OC2)S1 (stereo not drawn) | 106 | 104 | -19 | .
N#CC1(c2ccccc2)CCN(S(=O)(=O)c2ccc(OC(F)(F)F)cc2)CC1 | 102 | 98 | -14 | 6
Fc1ccc(-c2ccc(CNCCCSc3ncccn3)o2)cc1Cl | 103 | 102 | -32 | 24
COC(=O)c1ccc(COC(=O)C2CC(=O)N(Cc3ccco3)C2)cc1 (stereo not drawn) | 102 | 103 | -4 | -2
COc1ccc(C(=O)OCc2cc(=O)n3cc(C)ccc3n2)c(OC)c1OC | 103 | 111 | -6 | 4

The list goes on:
SMILES | PV pol inh | PV pol inh intensity | MenB inh | Mtb MbtI inh
NC(=O)C1CCN(C2CCN(C(=O)c3cccn4c(=O)c5ccc(Cl)cc5nc34)CC2)CC1 | 103 | 105 | -5 | 1
O=C1CN(/N=C/c2ccc(-c3ccc([N+](=O)[O-])cc3)o2)C(=O)N1 | 100&102 | 104&104 | -4 | 17
O=C(NCc1ccc2c(c1)OCO2)C1CCN(c2ccc(S(=O)(=O)N3CCCC3)cc2)CC1 | 104 | 99 | -41 | 6
CS(=O)(=O)NCCc1ccc(C(=O)O)s1 | 102 | 105 | -2 | 8
COC(=O)c1sccc1S(=O)(=O)N1CCN(C2c3ccccc3-c3ccccc32)CC1 | 97 | 102 | 12 | -3
C/C(=C/C(=O)O)C(=O)Nc1ccccc1F | 99 | 101 | -2 | 6
CC(C)(C)S(=O)(=O)c1ccc(-c2ccccc2)cc1 | 102 | 109 | -11 | .
NC(N)=NS(=O)(=O)c1ccccc1 | 103 | 107 | -4 | -6
Nc1noc2oc3nc(-c4ccncc4)cc(C(F)(F)F)c3c12 | 103 | 102 | -6 | -10
Cc1ccccc1CN1CCN(CC(=O)N(C)C2(C#N)CCCCC2)CC1 | 97 | 100 | 2 | 12
O=S(=O)(Nc1ccc(-c2ccno2)cc1)c1ccc2[nH]c3c(c2c1)CCCC3 | 102 | 99 | -26 | 8
Cc1ncc(CO)c(/C=N/NC(N)=S)c1O | 98 | 103 | -97 | 67
CC(CC(=O)O)(C(=O)O)c1ccccc1 (stereo not drawn) | 102 | 102 | 14 | -2
Cn1c(-c2ccccc2)cnc1N | 102 | 102 | -56 | 23
CCn1c2ccccc2c2cc(/C=N/NC(=O)c3ccncc3)ccc21 | 101 | 101 | -24 | -61
N#CC(C#N)=C1CCCN1CC(=O)c1ccccc1 | 100 | 104 | 14 | -5
O=C1NC(c2ccc(F)cc2)(C(F)(F)F)C(=O)N1Cc1ccco1 (stereo not drawn) | 99 | 103 | -56 | -24
CC(C)(C)c1ccc(-c2nnc(-c3ccc(N4CCOCC4)cc3)o2)cc1 | 101 | 100 | 35* | i
Cc1oc2ncn3c(C)nnc3c2c1C(=O)NC1CC1 | 99 | 103 | 8 | -3
CC1(C)OC(c2ccccc2)=NC1=O | 105 | 106 | -15 | .
O=C1C2C3C=CC(C3)C2C(=O)N1/N=C/c1ccc(O)c(O)c1 (stereo not drawn) | 104 | 99 | -34 | -16
CCn1ncc(/C=N/O)c1C | 103 | 100 | 9 | 4
CC(OC(=O)c1cccs1)C(=O)N1CCc2ccccc21 (stereo not drawn) | 105 | 104 | 6 | 4
CCCn1c(SCc2csc(CC(=O)Nc3ccccc3C)n2)n[nH]c1=O | 100 | 95 | -20 | 15
O=C1c2cccc3cccc(c23)C(=O)N1NCCO | 107 | 105 | 0 | 5
Cc1cc(-n2c(=S)sc3c(=O)n(-c4ccc(F)cc4)c(SCC#N)nc32)ccc1Cl | 104 | 107 | -38 | -3
CC(C)(O)C(C)(C)CCO | 109 | 97 | -17 | 10
O=C(CC1=NS(=O)(=O)c2ccccc2N1)NCCC1=CCCCC1 | 102 | 101 | 4 | -24
COc1cccc(NC(=S)NN)c1 | 100 | 104 | 1 | 10
C1=C(c2ccccc2)Nc2ncnn2C1c1ccc2c(c1)OCO2 (stereo not drawn) | 100 | 101 | 8 | -5

Quoted at random: 7 compounds from above
SMILES | PV pol inh | PV pol inh intensity | MenB inh | Mtb MbtI inh
Cc1cc(-n2c(=S)sc3c(=O)n(-c4ccc(F)cc4)c(SCC#N)nc32)ccc1Cl | 104 | 107 | -38 | -3
O=C(CC1=NS(=O)(=O)c2ccccc2N1)NCCC1=CCCCC1 | 102 | 101 | 4 | -24
CC1(C)OC(c2ccccc2)=NC1=O | 105 | 106 | -15 | .
Cc1oc2ncn3c(C)nnc3c2c1C(=O)NC1CC1 | 99 | 103 | 8 | -3
O=C1NC(c2ccc(F)cc2)(C(F)(F)F)C(=O)N1Cc1ccco1 (stereo not drawn) | 99 | 103 | -56 | -24
O=C1C2C3C=CC(C3)C2C(=O)N1/N=C/c1ccc(O)c(O)c1 (stereo not drawn) | 104 | 99 | -34 | -16
O=C1c2cccc3cccc(c23)C(=O)N1NCCO | 107 | 105 | 0 | 5

This is a random part of the collection; overall some 1.8% were active at least once.
